# VDR inh – blocks the human vitamin D receptor | Potency, µM, without a hit: max response, negative = inhibition, hits mostly inhibitors | 400,000 compounds, 0.93% hits | AID 504847 | P11473 | VDR-SRC2-3 peptide fluorescence polarization, 2 h; active = well fitted inhibition curve with a large enough effect; inconclusive = small, poorly fitted or top-dose-only effect, or another doubt; inactive = no such curve, though single readings can be large or run the other way; also: series mostly up to about 120 µM
# Target sequence (P11473 whole entry, looked up): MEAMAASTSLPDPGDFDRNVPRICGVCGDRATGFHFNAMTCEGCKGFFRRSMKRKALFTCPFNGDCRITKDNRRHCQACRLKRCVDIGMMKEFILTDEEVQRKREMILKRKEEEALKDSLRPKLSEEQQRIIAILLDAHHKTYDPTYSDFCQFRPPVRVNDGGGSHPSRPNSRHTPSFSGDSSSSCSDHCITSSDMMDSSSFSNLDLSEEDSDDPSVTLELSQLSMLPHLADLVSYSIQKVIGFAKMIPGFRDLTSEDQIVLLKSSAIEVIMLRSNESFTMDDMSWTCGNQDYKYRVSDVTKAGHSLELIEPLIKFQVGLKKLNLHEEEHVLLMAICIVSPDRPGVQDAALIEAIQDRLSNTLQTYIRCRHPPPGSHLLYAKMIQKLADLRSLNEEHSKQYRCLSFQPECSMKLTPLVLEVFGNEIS
#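 VDR–SRC2-3 interaction, FP format. Cmpds 23 nl via pintool, brief spin, 2 h ambient incubation.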
# * marks the source's active call; other numbers are inactive results; ? = inconclusive; & = joins results of further samples. % is scaled to controls: 0 for no effect and ±100 for the full control effect; potency is read from the fitted curve at half-maximal effect. The list is partial (hit frequency here may not be typical).
SMILES,VDR inh
O=c1[nH]c2ccccc2c(=O)n1-c1cccc(Cl)c1,-9.5%
Cc1ccccc1-n1c(O)c(/C=N/N2CCOCC2)c(=O)[nH]c1=S,2.9%
Nc1ccc2c(c1)Cc1ccccc1-2,-19.5%
C/C(O)=C(/C#N)C(=O)Nc1cc(Br)ccc1Br,-28.0%
COC(=O)C1=C(c2ccc(F)cc2OCc2ccccc2)C[C@@H]2CC[C@H]1N2C(=O)NCc1ccccc1OC,-6.7%
O=c1[nH]c(=O)n(Cc2ccc(F)cc2)c(O)c1C=NCC1CCCO1 (stereo not given),-28.3%
CCOc1ccc(N=Cc2c(O)n(-c3ccc(C)c(C)c3)c(=O)[nH]c2=O)cc1,17.9%
COCCNC(=O)Cn1cc(/C=C2\C(=O)NC(=O)N(c3ccccc3F)C2=O)c2ccccc21,11.2%
CCCCCn1c(=O)c(C(=O)NCc2ccccn2)c(O)c2ccccc21,5.7%
CC(=O)OC1C(O)C(C)OC(OC2C(OC(=O)C3CCC4C(C3)OC3(CC(OC(=O)/C=C/c5ccccc5)C(C)CO3)C43CO3)OC(C)C(O)C2OC(C)=O)C1O (stereo not given),-23.3%
O=C1CCCN1CC#CCN1CCCC1,4.9%&-3.1%&-5.9%
COC(=O)C1=C(c2ccc(-c3ccccc3)c(F)c2)C[C@@H]2CC[C@H]1N2C(=O)NCCOc1ccc(OC)cc1,2.2%
C=CCOC(=O)C1C(C(=O)O)C2(Cl)C(Cl)=C(Cl)C1(Cl)C2(Cl)Cl (stereo not given),-21.1%
O=C(CCNC(=O)N1C[C@H]2C[C@@H](C1)c1cccc(=O)n1C2)Nc1ccc(F)cc1,-4.2%
C=CCN=C(SCC(=O)c1ccc(Cl)cc1)c1c(O)n(C)c(=O)n(C)c1=O,-0.4%
COc1cc(/C=N/n2cnnc2)ccc1OC(=O)N(C)C,8.6%
O=C(CCN1CCOCC1)NCC(=O)Nc1ccc(Br)cc1C(=O)c1ccccc1,-0.6%
CNC(=O)Oc1ccc(-c2cn3cc(Cl)ccc3n2)cc1,-18.3%
COc1cc(C2(C#N)CCN(C)CC2)cc(OC)c1OC,3.9%
CC(C)CC(NP(=O)(O)O[C@@H]1O[C@@H](C)[C@H](O)[C@@H](O)[C@H]1O)C(=O)NC(Cc1c[nH]c2ccccc12)C(=O)O (stereo not given in full),7.4%
O=C1CN=C(c2cc([N+](=O)[O-])ccc2Cl)c2cc([N+](=O)[O-])ccc2N1,0.6%
c1ccc(C2OCCN3CCCCC23)cc1 (stereo not given),3.1%
Nc1ccc(S(=O)(=O)N2CC3CC(C2)c2cccc(=O)n2C3)cc1 (stereo not given),-0.3%
Cc1cccc(N=C2c3cc([N+](=O)[O-])ccc3-c3c2cc([N+](=O)[O-])cc3[N+](=O)[O-])c1,-18.7%
CSc1ccc(C(=O)C2CCCN(C)C2)cc1 (stereo not given),-5.3%
Cc1nn(Cc2ccccc2)c(C)c1C=C1C(=O)NC(=O)NC1=O,-26.4%
C[C@]12CCC3C(CC[C@H]4C[C@H](O)CC[C@]34C)C1C[C@@H](O)[C@@H]2O (stereo not given in full),-2.6%
Cc1ccc(C2=CCNCC2)cc1,-11.4%
Cc1c(OC(=O)N(C)C)ccc2c1O/C(=C\c1ccco1)C2=O,19.4%
Cc1c(C)c2ccc(OCC(=O)N3C[C@H]4C[C@@H](C3)c3cccc(=O)n3C4)cc2oc1=O,-4.1%
C/C=C(\C)C(=O)N[C@@H](c1ccccc1)[C@@H](O)C(=O)O[C@H]1C[C@@]2(O)[C@@H](OC(=O)c3ccccc3)C3[C@](C)(C(=O)[C@H](O)C(=C1C)C2(C)C)[C@@H](O)C[C@H]1OC[C@@]31OC(C)=O (stereo not given in full),-6.6%
CC1O[C@@H](OC2CC[C@@]3(C=O)C4CC[C@]5(C)C(C6=CC(=O)OC6)CC[C@@]5(O)C4CC[C@]3(O)C2)C(O)C(O)C1O (stereo not given in full),-7.1%
Cc1ccc(C2=NCC(=O)N(CC(=O)N3CCCCC3)c3sc(C)c(C)c32)cc1,5.7%
Cc1ccc(NC2=NCCCS2)c(C)c1C,-5.3%
Clc1ccc(C(c2ccc(Cl)cc2)C(Cl)(Cl)Cl)cc1,0.7%&1.1%
Clc1ccccc1C1NCc2ccccc2-n2cccc21 (stereo not given),5.9%
O=C(Cc1ccccc1)N1CCN(CC2CC3C=CC2C3)CC1 (stereo not given),5.9%
Cc1ccccc1-n1c(/C=C/c2ccc(N(C)C)cc2)nc2ccccc2c1=O,-18.3%
FC(F)(F)c1cccc(N2CCNCC2)c1,10.3%&-10.1%
CN1C[C@H](C(=O)N[C@@]2(C)O[C@@]3(O)C4CCCN4C(=O)C(Cc4ccccc4)N3C2=O)C[C@H]2c3cccc4[nH]cc(c34)C[C@H]21 (stereo not given in full),-0.9%

# Exported as tab-separated lines: part of the list above.
SMILES	VDR inh
Cc1ccc(NC2=NCCCS2)c(C)c1C	-5.3%
Clc1ccc(C(c2ccc(Cl)cc2)C(Cl)(Cl)Cl)cc1	0.7%&1.1%
Clc1ccccc1C1NCc2ccccc2-n2cccc21 (stereo not given)	5.9%
O=C(Cc1ccccc1)N1CCN(CC2CC3C=CC2C3)CC1 (stereo not given)	5.9%
Cc1ccccc1-n1c(/C=C/c2ccc(N(C)C)cc2)nc2ccccc2c1=O	-18.3%
FC(F)(F)c1cccc(N2CCNCC2)c1	10.3%&-10.1%

# Going on with the list:
SMILES,VDR inh
COc1ccc(-c2nc(CN3C(=O)CN=C(c4ccccc4)c4ccccc43)c(C)o2)cc1OC,3.7%
CCCCCC1(C(C)C)C(=O)NC(=S)NC1=O,-12.5%
COc1cc2c3c(c1OC)Oc1ccc(cc1)C[C@H]1c4c(cc(OC)c(OC)c4Oc4ccc(cc4)C[C@@H]3N(C)CC2)CCN1C,-22.4%
CN1C(=O)C(=Cc2ccccc2OS(=O)(=O)c2ccccc2)C(=O)N(C)C1=O,25.1µM*
Cc1ccc(-n2c(/C=C/c3cc(Br)cs3)nc3ccccc3c2=O)cc1C,6.2%
C[C@]12CCC(=O)C=C1CC[C@@H]1C2[C@H](O)C[C@]2(C)C(=O)CCC12 (stereo not given in full),-20.1%
O=C(C(=O)N1CCC2(CC1)OCCO2)c1c[nH]c2ccccc12,19.3%
Cc1cccc(OP(=O)(Nc2ccc(F)cc2)Oc2cccc(C)c2)c1,-0.3%
Cc1cc(/C=C2/C(=O)NC(=O)N(C)C2=O)c(C)n1-c1ccccc1,9.3%
O=C(N/N=C/c1c(O)n(C2CC2)c(=S)[nH]c1=O)c1ccccc1O,-3.3%
CCn1c(CN2CCN(C)CC2)nc2ccccc21,-2.1%
CCC12CN3CC(CC)(CN(C1)C3c1cccnc1)C2=O (stereo not given),-2.8%
Cc1sc2ncnc(N3CCN(S(=O)(=O)c4ccc(Br)cc4)CC3)c2c1C,?
COC(=O)C1=C(c2ccc(OCc3ccccc3)cc2)C[C@@H]2CC[C@H]1N2C(=O)NCc1ccc(OC)c(OC)c1,-10.7%
CC12CCC(=O)C=C1CCC1C2CCC2(C)C1CCC2(O)CC#N (stereo not given),-13.7%
Nc1ccccc1-[n+]1c(-c2ccccc2)cc(-c2ccccc2)cc1-c1ccccc1,-6.0%
C=C(C)CSc1nnc([C@@H](N)Cc2c[nH]c3ccccc23)o1,-24.3%
CN(C)c1ccc(-[n+]2c(-c3ccccc3)cc(-c3ccccc3)cc2-c2ccccc2)cc1,-13.5%
CCN(CC)C(=O)/C(Cl)=C(\C)OP(=O)(OC)OC,-1.8%
CCCCCCC(N)CC(=O)O (stereo not given),-1.7%
O=C(Nc1ccccc1)N1CCCC2(CCN(C(=O)Oc3ccccc3)CC2)C1,2.3%
CC(C)=CCCC1(C)C=Cc2c(O)c3c(c(CC=C(C)C)c2O1)OC12C(CC4CC1C(C)(C)OC2(C/C=C(/C)C(=O)O)C4O)C3=O (stereo not given),50.1µM*
COc1ccccc1-n1c(-c2cccs2)nc2ccccc2c1=O,-16.9%
CCCCn1c(=O)c(C(=O)NCc2ccccc2Cl)c(O)c2ccccc21,-4.7%
O=P(C(c1ccc2c(c1)OCO2)N1CCOCC1)(N1CCOCC1)N1CCOCC1 (stereo not given),19.0%
CC1(C)C2([N+](=O)[O-])CNCC1([N+](=O)[O-])CNC2,18.5%
CCCc1c(C)nc(-c2ccc(C)cc2)nc1OC(=O)N(C)C,17.0%
Cc1cccc(C)c1OP(N)(=O)Oc1c(C)cccc1C,-16.0%
CCOC(=O)C1CCN(C(C)C(=O)c2c(C)[nH]c3cc(C)ccc23)CC1 (stereo not given),-7.3%
Clc1ccc2c(c1)C(c1ccccc1Cl)=NCc1nncn1-2,12.5%

# Continued; it opens with the three that closed the last part.
SMILES,VDR inh
Cc1cccc(C)c1OP(N)(=O)Oc1c(C)cccc1C,-16.0%
CCOC(=O)C1CCN(C(C)C(=O)c2c(C)[nH]c3cc(C)ccc23)CC1 (stereo not given),-7.3%
Clc1ccc2c(c1)C(c1ccccc1Cl)=NCc1nncn1-2,12.5%
CC(=O)Nc1cc(C(=O)N2CCC3(CC2)OCCO3)ccc1Sc1ccc(F)cc1,-13.0%
Cc1cccc(-n2c(/C=C/c3ccc([N+](=O)[O-])o3)nc3ccccc3c2=O)c1,7.8%
CC(C)NC(=O)Cn1cc(C(=O)c2ccccc2F)c2ccccc21,19.3%
COc1ccccc1N1CCN(Cc2cccc(OC)c2O)CC1,?
CCC(C)C(=O)c1c(O)c(C)c2oc3c(C)c(O)c(C(=O)C(C)CC)c(O)c3c2c1O (stereo not given),-14.7%
COc1cc2c(cc1OC)-c1c3c(cc4c1[C@@H](C2)N(C)CC4)OCO3,3.8%
O=C1NC(=O)C(=Cc2coc3ccc(O)cc3c2=O)C(=O)N1,?
O=C(CCC(=O)N1CCC2(CC1)OCCO2)Nc1nnc(C(F)(F)F)s1,-1.2%
C=CCn1c(O)c(C(C)=NCCCN2CCOCC2)c(=O)[nH]c1=O,-2.1%
COC(=O)C1=C(c2ccc(C(C)=O)cc2)C[C@@H]2CC[C@H]1N2C(=O)NCc1ccc2c(c1)OCO2,-1.0%
COc1ccc(OCC#CCN2CCCCCC2)cc1,-11.1%
Cc1ccc(CN2CCSc3ccc(C(=O)N4CCC5(CC4)OCCO5)cc32)cc1,-9.8%
COc1ccccc1-n1c(/C=C/c2ccccn2)nc2ccccc2c1=O,-8.8%
CC1(C)C(C(=O)NCc2ccco2)C1(C)C,-6.7%
Cc1ccc(C(=O)NC2CC3CCCC(C2)N3Cc2ccccc2)cc1 (stereo not given),?
CN(C(=O)Cc1ccc(Cl)c(Cl)c1)C(CN1CCCC1)c1cccc(N=C=S)c1 (stereo not given),-5.1%
COc1ccc(NC2=NC(C)(C)CS2)cc1,8.0%
CCCCOC(=O)C1=C(N)OC2=C(C(=O)CCC2)[C@]12C(=O)N(C)c1ccccc12,-0.9%
CCCCCCN=C(C)c1c(O)n(Cc2ccccc2)c(=O)[nH]c1=O,-6.8%
CNCCc1ccc(O)c(O)c1,?
Cc1cc(OCc2nn[nH]n2)c2c3c(c(=O)oc2c1)CCCC3,-16.4%
NC(=O)C1(N2CCCCC2)CCN(Cc2ccccc2)CC1,3.7%
COc1ccc(CCNCc2ccsc2)cc1OC,-28.2%
O=c1c(C=Nc2cccnc2Cl)c(O)n(CCCCl)c(=O)n1C1CCCCC1,3.7%
NC[C@H](CS(=O)(=O)O)c1ccc(Cl)cc1,8.7%
Cc1ccc(OCC(=O)N2CCN(Cc3ccc4c(c3)OCO4)CC2)cc1C,-5.1%
Cc1nonc1-c1nc(-c2nonc2N)n[nH]1,-4.3%
CSCC[C@@H]1NC(=O)[C@@H](NC(=O)[C@H](CCCNC(=N)N)NC(=O)[C@H](CC(C)C)NC(=O)[C@H](CCSC)NC(=O)[C@H](CC(=O)O)NC(=O)[C@H](Cc2ccccc2)NC(=O)[C@@H](N)CC(=O)O)CSSC[C@@H](C(=O)N[C@@H](Cc2c[nH]c3ccccc23)C(=O)N[C@@H](CCC(N)=O)C(=O)N[C@H](C(=O)O)C(C)C)NC(=O)[C@@H]2CCCN2C(=O)[C@H](CCCNC(=N)N)NC(=O)[C@H](Cc2ccc(O)cc2)NC(=O)[C@H](C(C)C)NC(=O)[C@H](CCCNC(=N)N)NC(=O)CNC(=O)[C@H](CC(C)C)NC1=O,?
CC(=O)C1C(N2CC2)CC2C3CCC4=CC(=O)CCC4(C)C3CCC21C (stereo not given),-25.7%
CC(=NCCO)c1c(O)n(C)c(=O)n(C)c1=O,-17.4%
Cc1c(Cl)cccc1NC(=O)CN1C(=O)C(C)N=C(c2ccccc2)c2ccccc21 (stereo not given),3.2%
O=C1C=CC(=O)C2C1C1(Cl)C(Cl)=C(Cl)C2(Cl)C1(Cl)Cl (stereo not given),8.0%
Cc1cccc(NC(N)=S)c1,4.0%
CCOC(=O)N1CC(C)N(/[N+]([O-])=N/Oc2ccc([N+](=O)[O-])cc2[N+](=O)[O-])CC1C (stereo not given),?
O=C1CN=C(c2ccccc2)c2oc3ccc(Br)cc3c2N1,-12.3%
COc1cccc(CNC(=O)CCC(=O)N2C[C@H]3C[C@H](C2)c2cccc(=O)n2C3)c1OC,-4.9%
COC(=O)C1=C(c2cccc(OCc3ccccc3)c2)C[C@@H]2CC[C@H]1N2C(=O)NNCc1ccccc1,-2.4%
CCOc1ccc(NC(=O)CCNC(=O)N2C[C@H]3C[C@@H](C2)c2cccc(=O)n2C3)cc1,-7.1%
CC[N+](C)(CC)CCC[n+]1c(-c2ccccc2)c2cc(N)ccc2c2ccc(N)cc21,8.91µM*
CCOC(=O)c1ccc(-n2c(N)c(C(=O)NCC3CCCO3)sc2=S)cc1 (stereo not given),?
Cc1ccc(S(=O)(=O)N(C)c2ccc(C(=O)NCC3(N(C)C)CCCCC3)cc2)cc1,0.3%
CCCCP(=O)(O)CCC(=O)O,7.7%
COc1ccc(CNCCc2ccc(Cl)cc2Cl)cc1,0.4%

# Screens deposited in PubChem by National Center for Advancing Translational Sciences (NCATS).
